GALR2 agonist = GALR2 receptor agonists, primary screen, cell-based; Galanin receptor type 2 (Homo sapiens), O43603; GALR2-expressing cells, agonist activation read-out; activation, %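 (tested at 5 µM)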; 0.48% of 140,000 active; AID 803, 2007;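 active = above mean plus 3 SD of all compounds, about 5% in these data, not always enough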;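 note: 0% = vehicle buffer wells and 100% = reference agonist at full effect; tested in CHO reporter cells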
Target sequence (O43603 whole entry, looked up): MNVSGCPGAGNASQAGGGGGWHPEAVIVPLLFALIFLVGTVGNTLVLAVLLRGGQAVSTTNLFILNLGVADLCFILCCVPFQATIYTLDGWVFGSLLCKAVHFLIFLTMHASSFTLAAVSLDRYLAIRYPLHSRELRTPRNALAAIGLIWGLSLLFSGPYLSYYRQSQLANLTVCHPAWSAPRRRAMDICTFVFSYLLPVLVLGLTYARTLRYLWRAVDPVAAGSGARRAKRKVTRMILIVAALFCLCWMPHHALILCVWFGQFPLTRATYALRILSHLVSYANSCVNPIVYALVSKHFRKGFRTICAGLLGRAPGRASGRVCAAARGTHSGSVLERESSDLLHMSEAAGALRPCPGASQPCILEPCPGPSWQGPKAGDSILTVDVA
INS promoter inh = inhibitors of insulin promoter-driven GFP, primary screen, imaging, TRM-6 cells (human fetal islet line), eGFP reporter, cell count. reporter expression induced with tamoxifen. inhibition, % at 2 µM. 0.9% of 130,000 active. AID 1273, 2008;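 active = inhibition above the mean plus 3 SD, with well images judged a real hit on visual review, cut at about 60% in these data, passing the limit was not always enough; inconclusive = inhibition over the cutoff but images rejected on review; inactive = inhibition not above the cutoff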
HSV augment = enhancers of HSV replication in host cells, fold increase, host cell viability; HSV replication augmentation in cells; maximum fold increase; 0.005% of 220,000 active;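 active = peak rise of 1.5-fold or more in the series; inconclusive = self-fluorescent or not available for retest; tested in PC3 cells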;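 note: first round at 10 µM; read as green reporter fluorescence; hits show the peak of a series up to 25 µM; 1 = signal of infected wells without compound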
PKD1 kinase inh = inhibitors of human PKD1 kinase, biochemical, fluorescence polarization. 0.056% of 200,000 active. inhibition, %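 (about 10 µM by stock and volumes)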. PKD1 kinase fluorescence polarization assay. Serine/threonine-protein kinase D1 (Homo sapiens), Q15139;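 active = inhibition of 50% or more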;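 note: controls were vehicle for no effect and a reference inhibitor for full effect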
RGS16-Gao HTS = modulators of RGS16 binding to Galphao, primary screen, biochemical, human proteins, multiplexed bead flow cytometry; 0.38% of 220,000 active; Regulator of G-protein signaling 16 (Homo sapiens) + Guanine nucleotide-binding protein …; binding response (% of control), % at 10 µM; bead-based flow cytometry RGS16-Galphao binding, fluorescence; actives lie on both sides;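 active = below 25% or above 175%, edge rows of some plates excepted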;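 note: Galphao activated by GDP with aluminum fluoride before binding; 100% = wells without compound and 0% = beads without RGS; some results beyond the cut were filed as inactive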
Target sequence (O15492 whole entry, looked up): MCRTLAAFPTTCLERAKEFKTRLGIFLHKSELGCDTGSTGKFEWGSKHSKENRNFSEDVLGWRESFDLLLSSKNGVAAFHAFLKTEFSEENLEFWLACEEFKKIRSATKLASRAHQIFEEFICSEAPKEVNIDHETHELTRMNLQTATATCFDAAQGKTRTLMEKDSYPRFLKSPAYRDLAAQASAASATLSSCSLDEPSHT
Target sequence (P09471 whole entry, looked up): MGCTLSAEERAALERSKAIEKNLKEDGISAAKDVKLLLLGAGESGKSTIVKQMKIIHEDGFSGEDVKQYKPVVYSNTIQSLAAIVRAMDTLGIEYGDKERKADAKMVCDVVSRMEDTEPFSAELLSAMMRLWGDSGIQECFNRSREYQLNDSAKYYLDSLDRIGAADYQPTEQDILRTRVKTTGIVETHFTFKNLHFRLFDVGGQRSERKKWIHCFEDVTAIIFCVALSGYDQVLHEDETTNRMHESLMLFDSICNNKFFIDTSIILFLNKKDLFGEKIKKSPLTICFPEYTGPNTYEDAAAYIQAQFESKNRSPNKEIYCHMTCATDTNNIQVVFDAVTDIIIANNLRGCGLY
INS promoter inh cell count = further read-out of INS promoter inh, marked with its call; normalized cell count, %; measured here: cell count, toxicity; reference of the scale not given here;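 cells exposed to compound for 48 h; stained nuclei by imaging scaled within each plate; lower means fewer cells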
HSV augment primary fold = second read-out of HSV augment, no call of its own (marks repeat the call); fold increase; compound at 10 µM; measured here: primary screen fold increase 10 uM; tested in PC3 cells;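 GFP signal in the first replicate; 1 = infected wells without compound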
* hit, by the source's call; i = inactive; u = inconclusive; x = no result given; & = joins results of further samples; [ ] = remark or other dose.

smiles	GALR2 agonist	INS promoter inh	INS promoter inh cell count	HSV augment	HSV augment primary fold	PKD1 kinase inh	RGS16-Gao HTS
O=C(NCc1ccc(F)cc1)C1CCN(S(=O)(=O)N2CCCCC2)CC1	-1.8	-38	91	i	1.2	-1	92
CCC1CCCCN1Cc1nc(Cc2ccccc2Cl)no1 (configuration not stated)	x	x	x	i	0.88	x	105
CN(C)CCN1C(=O)NC(C)(c2ccc([N+](=O)[O-])cc2)C1=O (configuration not stated)	x	x	x	i	0.99	-1	105
Cc1cc(Nc2ccc(Cl)cc2)nc(N)n1	-1.7	-14	206	i	0.72	-2	74
COc1ccc(C(C)=O)cc1CSc1nc2ccccc2c(=O)n1-c1ccccc1C	0.9	31	126	i	0.87	-5	95
CCOC(=O)c1cnc(-n2nc(C)cc2C)nc1Oc1ccc(C#N)cc1	x	x	x	i	1	x	97
Cc1ccc2c(c1)sc1nc(=O)n(-c3ccc(Cl)cc3)c(=O)n12	1.2	21	100	i	1	5	104
O=C(CCn1cnc2ccccc2c1=O)Nc1cccc(Cl)c1	-1.6	-9	60	i	1	-10	98
O=C(Cc1ccccc1F)Nc1ccc(SC(F)F)cc1	0.4	-37	103	i	0.86	-2	107
CCOC(=O)c1c(NC(=O)CSc2nnc(-c3c[nH]c4ccccc34)n2CCOC)sc2c1CCCCC2	0.2	-90	138	i	0.71	-1	102
COc1cccc(N2C(=O)CC(Nc3ccc(N4CCOCC4)cc3)C2=O)c1 (configuration not stated)	-2.2	x	x	i	0.85	1	98
CCCc1ccc(C(=O)NNc2ccccc2F)cc1	x	x	x	i	0.96	x	92
COc1cc2[nH]c(=O)n(CCC(=O)N3CCN(Cc4ccccc4)CC3)c(=O)c2cc1OC	x	27	166	i	0.95	-1	104
O=C(O)CCCNS(=O)(=O)c1ccc2c(c1)OCCCO2	-0.4	x	x	i	1	-11	116
COc1ccccc1/C=C/C(=O)NCCC1=CCCCC1	x	x	x	i	1	-3	100
CC(=O)Nc1ccc(/C=N/OCC(=O)Nc2ccc(C)cc2)cc1	-1.4	-14	115	i	0.95	-7	107
CCOCCCN1CC(C(=O)NCCc2ccc(C)cc2)CC1=O (configuration not stated)	-0.2	x	x	i	0.98	-1	98
Cc1ccccc1C(=O)Oc1ccc(Sc2ccc(O)cc2)cc1	-2.3	-7	127	x	x	7	89
C/C(=N/NC(=O)CSc1nc2ccccc2n1C)c1ccc(O)cc1	x	-7	116	i	1.1	-5	109
Cc1ccc(CN2C(=O)CCC2C(=O)NC(C)C)cc1 (configuration not stated)	-1.9	-35	70	i	0.91	7	100
CCOC(=O)CSc1nc2cc(C(=O)N3CCCC3)ccc2c(=O)n1Cc1ccccc1	0.8	-44	95	i	0.86	2	117
O=C(C1CCCN(CCCc2ccccc2)C1)N1CCCCC1 (configuration not stated)	0.0	-6	120	i	0.98	-9	99
COc1ccc(/C=N/NC(=O)c2cccc(NC(C)=O)c2)c(OC)c1	x	-55	120	i	0.99	-4	98
CCOC(=O)CN(C(=O)CNC(=O)c1ccco1)C(C(=O)NC1CCCC1)c1ccccc1OCC (configuration not stated)	-0.9	x	x	i	1	6	98
Cc1ccc(CNC(=O)CCC2CCCN(Cc3cccc4cccnc34)C2)o1 (configuration not stated)	x	x	x	i	1.1	-5	109
Cc1ccccc1N/N=C/c1ccc(C#N)cc1	-1.0	0	123	i	1.1	3	106
O=C(COC(=O)C1CCC(=O)N1)Nc1ccc(Cl)cc1Cl (configuration not stated)	0.5	x	x	i	1	-5	102
Cc1ccc(NC(=O)c2ccccn2)c(Br)c1	x	x	x	i	0.97	-4	108
C=CCNC(=S)Nc1ccc2nc(C)oc2c1	x	44	98	x	x	0	91
CCOc1ccccc1C1CC(c2ccc(Br)cc2)Nc2nc(N)nn21 (configuration not stated)	-0.9	x	x	i	0.74	-2	73

Complete entries from above:
`Cc1cc(Nc2ccc(Cl)cc2)nc(N)n1` as listed: GALR2 agonist: -1.7; INS promoter inh: -14; INS promoter inh cell count: 206; HSV augment: i; HSV augment primary fold: 0.72; PKD1 kinase inh: -2; RGS16-Gao HTS: 74
`COc1ccc(C(C)=O)cc1CSc1nc2ccccc2c(=O)n1-c1ccccc1C` as listed: GALR2 agonist: 0.9; INS promoter inh: 31; INS promoter inh cell count: 126; HSV augment: i; HSV augment primary fold: 0.87; PKD1 kinase inh: -5; RGS16-Gao HTS: 95

Later entries.
smiles	GALR2 agonist	INS promoter inh	INS promoter inh cell count	HSV augment	HSV augment primary fold	PKD1 kinase inh	RGS16-Gao HTS
Cc1ccc(OC(=O)N2CCOCC2)cc1	-2.1	-3	66	i	0.9	-8	95
COc1ccc(CN(C(=O)c2ccco2)c2ccc(Br)cc2)cc1OC	-2.1	-50	66	i	0.84	12	95
Cc1ccc(-c2cc(C(=O)N(C)Cc3cnn(C)c3C)c3cc(Br)ccc3n2)cc1	-0.4	x	x	i	0.78	11	104
Cn1cccc1C(=O)NC(=O)COC(=O)c1cc(S(=O)(=O)N2CCCCC2)ccc1Cl	x	7	135	i	0.94	91*	106
CCNC1=C(Cl)C(=O)c2ccccc2C1=O	-3.9	29	112	i	0.89	7	99
Cc1ccc(S(=O)(=O)N2c3ccccc3NC(=O)CC2C)cc1 (configuration not stated)	-0.6	0	133	i	0.96	-8	99
Cc1ccc(S(=O)(=O)N/N=C/c2cc(Br)c(C)o2)cc1	-0.3	17	68	i	1.1	14	92
O=C1c2ccccc2C(=O)N1CC#CCN1CCN(C(c2ccccc2)c2ccccc2)CC1	-0.3	-14	49	i	0.98	-4	106
COC(=O)c1cccc(NC(=O)CSc2nnc(COc3ccc(C#N)cc3)n2-c2ccccc2)c1	-0.9	-31	93	i	0.78	-5	107
O=C(O)CCCC(=O)Nc1c(F)c(F)c(F)c(F)c1F	-1.0	-4	79	i	0.91	-4	99
O=S(=O)(c1ccc(NC(=S)NCc2cccnc2)cc1)N1CCCCC1	x	x	x	i	0.83	x	97
O=C(NC(Nc1ncc(S(=O)(=O)c2ccc([N+](=O)[O-])cc2)s1)(C(F)(F)F)C(F)(F)F)c1ccc(Cl)cc1	-3.2	-24	69	x	x	2	104
CN(C)c1ccc(/C=C2\SC(=O)N(CCc3nnc(N)s3)C2=O)cc1	x	x	x	u	x	x	93
CC(Sc1ccc2c(c1)OCCO2)C(=O)Nc1ccc(N2CCOCC2)cc1 (configuration not stated)	x	x	x	i	0.97	-2	98
O=C(NC(=S)NCCN1CCOCC1)c1ccc(F)cc1	-2.0	33	101	i	0.84	-4	100
NC(=O)CSc1nnc(COc2ccccc2)n1CCc1ccccc1	-0.6	6	150	i	1.1	-12	114
CCNC(=S)N(CCc1c(C)[nH]c2ccccc12)Cc1cc(OC)c(OC)c(OC)c1	0.8	10	93	x	x	-2	x
COc1ccc(S(=O)(=O)NC(CC(=O)NCCc2ccc(OC)c(OC)c2)C(C)C)cc1 (configuration not stated)	x	x	x	i	1	-1	118
Cc1cc(C)n(-c2ccc(C(=O)N3CCC(CO)(Cc4ccccc4)CC3)cc2)n1	x	x	x	i	1	-2	98
CCOC(=O)N1CCN(c2c(NCc3ccc(N(C)C)cc3)c(=O)c2=O)CC1	-0.4	x	x	i	0.97	0	95
Cc1ccc(-c2cc(C(F)F)n3ncc(C(=O)Nc4ccc(S(=O)(=O)Nc5ccccc5C)cc4)c3n2)cc1	-1.8	-21	63	i	0.81	-3	56
O=C(NNC(=O)c1ccccc1-n1cccc1)c1ccc(Cl)c(Cl)c1	-4.4	-22	152	i	0.92	-11	121
NNC(=O)c1nc(-c2ccccc2)n2c1CCCCC2	-2.1	35	118	i	0.97	-6	101
CC(C)(C)c1cc(C(=O)N/N=C/c2ccco2)n[nH]1	-0.6	-24	85	i	0.91	-7	279*[activator]
COc1ccc(OCC(=O)N2CCN(c3cccc(C(F)(F)F)c3)CC2)cc1	-2.7	x	x	i	0.93	-5	84
Cc1ccccc1NC(=O)Cn1nnc(S(=O)(=O)c2ccc(C(C)(C)C)cc2)c1N	4.7	-55	116	x	x	-14	87
CC1(C)CC(=O)C2=C(C1)N(CC1CCCO1)C(=O)C2(O)C(F)(F)F (configuration not stated)	-0.9	19	97	i	0.85	-5	104
N#Cc1ccc(OCC(=O)NCCc2ccccn2)cc1	-1.1	-20	104	i	1	8	93
O=C(C1CCCN(Cc2ccccc2)C1)N1CCCCC1 (configuration not stated)	-1.4	x	x	i	1	-3	94
CC(C)CNC(=O)c1ccc(Cl)c(N)c1	-0.6	-37	136	i	0.99	0	104
CC(C)(C)c1cccc(Oc2nn[nH]n2)c1	-2.7	-33	111	i	1.5	7	102
COc1ccc(C2(CNC(=O)CCC(=O)O)CCCC2)cc1OC	0.4	-48	106	i	0.82	-1	101
CC(C)c1ccc(C2N3CC4([N+](=O)[O-])CN2CC([N+](=O)[O-])(C3)C4(C)C)cc1 (configuration not stated)	-1.2	x	x	i	1.1	-5	104
CCOC(=O)c1cc(-c2ccccc2)nn1-c1ccccn1	-2.1	9	123	i	0.97	-3	102
Cc1cc(C)cc(NC(=O)CSc2ccccc2)c1	x	i	54	i	0.94	1	112
CC(C)(C)c1ccc(OCC(=O)O)cc1	-1.2	-415	63	i	0.82&0.91	1	69&101
Cc1cc(C)c[n+](-c2nc([O-])sc2C=O)c1	-0.2	-12	152	i	1.1	4	92
COc1ccc(NC(=O)CC2SC(=NCC3CCCO3)NC2=O)c([N+](=O)[O-])c1 (configuration not stated)	x	x	x	i	0.95	1	100
c1ccc(OCCOCCSc2ncccn2)cc1	-0.4	81*	121*	i	1	-14	100
CCn1c(SCC(=O)OC(C)C)nnc1-c1cccc(Cl)c1	-0.3	-15	53	i	0.81	-3	103
CCOC(=O)C1CCCN(c2ncnc3c2[nH]c2cccc(OC)c23)C1 (configuration not stated)	-1.8	21	102	i	1	-8	98
COc1cc(/C=N/Nc2nc3ccccc3[nH]2)ccc1O	-1.0	29	105	i	0.85	9	103
CC(NC(=O)NNC(N)=S)(C(F)(F)F)C(F)(F)F	x	x	x	i	1.3	x	94
O=C(C1c2ccccc2Oc2ccccc21)N1CCN(c2ccc(Cl)cc2)CC1	-1.2	-13	110	x	x	2	129
Cc1ccc(S(=O)(=O)N2CC3(C)CN(S(=O)(=O)c4ccc(C)cc4)CC(C)(C2)C3=O)cc1	-2.5	17	88	i	1.1	-11	98
Cc1cc(C)cc(OCC(=O)Nc2ccc3c(c2)C(=O)c2ccccc2C3=O)c1	0.2	-7	81	i	0.94	-2	100
O=C(Nc1ccc2ccccc2c1)/C(=C/c1cccc(Br)c1)NC(=O)c1ccco1	0.0	-6	68	i	0.77	-2	101
CC1(C)CC2CC(C)(CN2CC(O)COc2ccccc2)C1 (configuration not stated)	x	21	145	i	1.1	2	100
CCCCn1c(=N)n(CC(=O)c2ccco2)c2ccccc21	-2.8	14	162	i	0.97	3	106
O=C(/C=C/NNC(=O)c1ccccc1)c1ccccc1	5.9	29	117	i	0.91	-8	104
Cn1nnnc1CCOCCc1nnnn1C	-0.9	x	x	i	0.89	-6	105
O=C(c1csc2c1CCCC2)N1CCN(c2cccc(C(F)(F)F)c2)CC1	-2.2	9	89	i	1.1	-9	102
COCCn1c(-c2ccccc2)csc1=Nc1cccnc1	x	0	110	i	1.1	-5	104
Cc1ccc(NC(=O)CSc2nc3c(cc2C#N)C(=O)CCC3)cc1S(=O)(=O)N(C)C	0.1	0	98	i	0.55	7	116
CCC(=O)N1c2ccc(S(=O)(=O)CCC(=O)Nc3nccs3)cc2CC1C (configuration not stated)	-3.1	0	126	i	0.73	-13	102
CC(=O)c1ccc(NC(=O)CN(C)CC(=O)Nc2cccc(F)c2)cc1	x	x	x	i	1.2	-13	99
COc1ccc(CSC2=CS(=O)(=O)c3ccccc3N2)cc1	x	10	96	i	0.95	0	98
CCOC(=O)N1CCC(Nc2c(NCCN3CCN(Cc4ccccc4)CC3)c(=O)c2=O)CC1	-1.0	x	x	i	0.91	-9	99
COc1cccc(CNCCNC(=O)c2ccco2)c1OC	-0.2	-28	162	i	0.95	2	101
Cc1nc2nc(C)c(CCC(=O)N3CCc4ccccc43)c(C)n2n1	-4.1	-12	59	i	1	10	106

Source: PubChem BioAssay (several laboratories)
